Source: PubChem
MT1-MMP act inh: blockers of MT1-MMP proenzyme processing, primary screen, HT1080 RFP-PRO-GFP cells, GFP/RFP fluorescence | Matrix metalloproteinase-14 (Homo sapiens), P50281 | GFP/RFP ratio fluorescence, overnight; percent of plate control window, DMSO zero | GFP/RFP ratio change, % at 20 µM | 0.061% of 360,000 active | AID 651647, 2012;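 active means GFP/RFP ratio change of at least 30% with cell ATP level not reduced by more than half and red fluorescence within 50% of control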; further: strong numbers were not always called active
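Assay system: HT1080 cells carrying an RFP-PRO-GFP reporter | Dosing: Single dose of 20 µM compound, 1% DMSO final | Incubation: Cells overnight before dosing, compound overnight, 37 °C, 5% CO2 | Evaluation: GFP/RFP fluorescence ratio | Control set: DMSO and RFP-L50D-GFP cell wells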
Env fusion inh: inhibitors of HIV-1 Env-driven cell-cell fusion, primary screen, HeLa-JRFL effector, CEM21 target cells, luciferase; inhibition, % at 12.3 µM; AID 651610, 2012; 1.1% of 360,000 active;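 active means mean replicate inhibition score of at least 50 and every replicate individually at or above 50; inconclusive means only one of the two criteria met; inactive means mean below 50 and not all replicates reaching 50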;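 further: 0% = plate neutral controls and 100% = maraviroc near 300 nM; one replicate is shown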
PABP polyA inh: PABP poly(A) RNA binding inhibitors, primary screen, biochemical, fluorescence polarization, uHTS. Polyadenylate-binding protein 1 (Homo sapiens), P11940. inhibition, % at 35 µM. 1% of 290,000 active. AID 2014, 2009;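 active means 50% or more with normal probe brightness, or confirmed in later tests; inconclusive means above 50% with abnormal brightness, or retests that disagree; inactive means below 50% or failed in later tests; about a fifth of its hits are not listed in these tables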;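 further: calls also rest on retests at 20 µM and on dose response follow-up; controls were probe without protein and protein plus probe with vehicle; some compounds called inactive have numbers as strong as hits; many hits fall short of the cut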
Target sequence (P11940 whole entry, looked up): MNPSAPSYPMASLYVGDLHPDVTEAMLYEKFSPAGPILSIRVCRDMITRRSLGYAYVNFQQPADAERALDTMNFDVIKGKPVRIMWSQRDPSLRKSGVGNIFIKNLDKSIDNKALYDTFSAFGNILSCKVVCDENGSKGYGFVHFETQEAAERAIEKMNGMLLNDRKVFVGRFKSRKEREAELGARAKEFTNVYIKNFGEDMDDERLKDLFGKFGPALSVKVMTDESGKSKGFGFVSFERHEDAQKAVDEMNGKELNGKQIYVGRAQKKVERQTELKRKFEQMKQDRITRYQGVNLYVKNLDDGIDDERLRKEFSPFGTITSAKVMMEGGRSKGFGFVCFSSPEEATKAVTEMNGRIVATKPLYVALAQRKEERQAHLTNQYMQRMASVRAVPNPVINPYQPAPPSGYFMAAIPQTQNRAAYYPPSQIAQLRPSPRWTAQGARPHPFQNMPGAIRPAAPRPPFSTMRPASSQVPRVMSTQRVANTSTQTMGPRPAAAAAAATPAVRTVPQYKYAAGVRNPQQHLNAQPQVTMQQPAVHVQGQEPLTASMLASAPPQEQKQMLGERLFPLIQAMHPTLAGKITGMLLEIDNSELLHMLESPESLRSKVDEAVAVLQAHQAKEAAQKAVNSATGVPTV
eIF4H FP inh: human eIF4H binding inhibitors, primary screen, translation initiation inhibitor project, biochemical, uHTS, fluorescence polarization | Eukaryotic translation initiation factor 4H (Homo sapiens), Q15056 | eIF4H fluorescence polarization binding assay | inhibition, % at 35 µM | 0.94% of 290,000 active | AID 2012, 2009;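 active means 50% or more with normal probe brightness, or confirmed in later tests; inconclusive means above 50% with abnormal brightness, or retests that disagree; inactive means below 50% or failed in later tests; about a fifth of its hits are not listed in these tables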;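 further: calls also rest on retests at 20 µM and on dose response follow-up; 0% = protein and probe with vehicle and 100% = probe without protein; strong numbers were not always called active; many hits fall short of the cut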
Rce1 inhib: yeast Rce1p protease inhibitors, primary screen, biochemical, fluorescence, cell-free homogeneous. CAAX prenyl protease 2 (Saccharomyces cerevisiae (strain ATCC 204508 / S288c)), Q03530. 0.27% of 290,000 active. yeast membranes, quenched prenylated peptide cleavage fluorescence. calls only;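 active means fall in fluorescence gain of 50% or more versus controls, with final raw signal at or below 3038400; inconclusive means same 50% fall but final raw signal above 3038400; inactive means fall in fluorescence gain under 50%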;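 further: plate controls were neutral control wells for no effect and wells lacking membranes for full effect; tested at 10 µM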
Target sequence (Q03530 whole entry, looked up): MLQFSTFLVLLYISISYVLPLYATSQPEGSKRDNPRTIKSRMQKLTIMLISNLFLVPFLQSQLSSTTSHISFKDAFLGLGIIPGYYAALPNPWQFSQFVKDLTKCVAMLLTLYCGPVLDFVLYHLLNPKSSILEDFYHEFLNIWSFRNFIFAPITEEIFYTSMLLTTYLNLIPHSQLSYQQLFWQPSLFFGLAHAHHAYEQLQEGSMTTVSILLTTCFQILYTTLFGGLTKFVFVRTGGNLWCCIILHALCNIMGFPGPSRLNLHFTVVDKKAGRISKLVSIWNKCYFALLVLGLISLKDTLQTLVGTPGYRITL
Yeast UUG start: modulators of yeast start codon fidelity, primary screen, whole organism, S. cerevisiae, single point, plate reader; S. cerevisiae UUG-firefly luciferase reporter, luminescence/redox ratio; activity score, % at 18.7 µM; 0.13% of 350,000 active;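 active means replicate mean at a twofold rise or more, about +100% in these data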;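 further: firefly luciferase made from a UUG start codon reports start codon fidelity; reporter light over untreated wells divided by growth signal over untreated wells; some hits fall short of that in this replicate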
CSC inhib: cancer stem cell viability inhibitors, primary screen, luminescence | AID 2717, 2010 | 1.1% of 300,000 active | cancer stem cell-like cells viability | inhibition, % at 7.5 µM;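 active means mean at 75% or more and at least half the replicates too; inconclusive means mean and replicates disagree; tested in HMLE shEcad cells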;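 further: 0% = median of negative and 100% = median of positive control wells; the first replicate is given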
eIF4H FP inh retest: recorded beside eIF4H FP inh, whose call it bears; inhibition, %; compound at 20 µM; confirmation average;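 mean of two retest wells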
PABP polyA inh retest: also measured in PABP polyA inh; calls as there; inhibition, %; compound at 20 µM; confirmation repeats;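 mean of two retest wells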
MT1-MMP act inh RFP: second read-out of MT1-MMP act inh, no call of its own (marks repeat the call); RFP signal change, %; measured here: RFP expression control read;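 0 = vehicle wells; hits needed this value within 50% of zero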
* = called active by the depositor; i = inactive; u = inconclusive; x = no result given; & = joins results of further samples.

SMILES	MT1-MMP act inh	MT1-MMP act inh RFP	Env fusion inh	PABP polyA inh	eIF4H FP inh	Rce1 inhib	Yeast UUG start	CSC inhib	others
O=C(CSc1cccc(C(F)(F)F)c1)Nc1nnc(C2CC2)s1	2	-1	-30	x	x	x	-13	-15
CC(C)(C)[C@H]1C=C(C(=O)NCc2nc3ccccc3[nH]2)O[C@@H](OCCCCO)C1	0	2	u	-11	1	i	-13	-4
O=C(NCc1cccnc1)Nc1ccc(Cl)cc1Cl	1	-2	57*	-8	-7	i	-17	12
COc1ccccc1-c1cnc(C(O)c2ccc(C)cc2)[nH]1 (stereo unspecified)	3	1	-53	x	x	x	-8	x
ON1C2CCCCC2N(O)C1c1ccccc1C(F)(F)F (stereo unspecified)	7	10	x	1	4	i	x	-3
COc1cccc(C(=O)N2CCN(C(=O)C3COc4ccccc4O3)CC2)c1 (stereo unspecified)	5	0	9	-2	-4	i	0	-11
CCOc1cccc(CN2CCCC(C(=O)c3cccc(C(F)(F)F)c3)C2)c1O (stereo unspecified)	2	2	12	-4	-7	i	x	9
CCN1CCN(C(c2cccnc2)c2cc(Cl)c3cccnc3c2O)CC1 (stereo unspecified)	-5	0	-54	2	7	i	-51	78*
c1cncc(-c2cnc3ccccc3c2)c1	-2	1	-40	x	x	x	-14	-14
COc1ccc(NC(=O)CSCC(=O)NCc2cccc(C(F)(F)F)c2)cc1	-1	0	10	x	x	x	-12	3
O=C(c1cnn2c(C(F)F)cc(-c3ccccc3)nc12)N1CCN(Cc2ccc3c(c2)OCO3)CC1	0	-5	58*	11	-8	i	0	0
Cc1ccc(CSc2nc3c(c(N(C)C)n2)CCCC3)cc1	-9	-9	x	25	-2	i	-17	-17
CCn1c(SCC(=O)Nc2ccccc2C(=O)OC)nnc1-c1ccc(N)cc1	-3	-1	-54	-3	2	i	-19	-6
CC(C)(C)C(=O)N1CCN(c2ccc(Cl)cc2[N+](=O)[O-])CC1	2	2	23	-4	2	i	x	-14
Cc1occc1C(=O)N/N=C/C=C/c1ccccc1	4	2	-37	0	-2	i	x	-5
CCn1c(C)c(C(C)=O)c(N2CCC(C(N)=O)CC2)nc1=S	0	4	-53	5	-8	i	0	2
COc1cc(C2C(C(=O)/C=C/c3ccccc3)=C(O)C(=O)N2c2ccccn2)ccc1O (stereo unspecified)	-43	5	7	u	u	i	-4	21
CCN(CC)CCN1c2ccccc2Sc2ccccc21	1	3	-5	11	8	i	-15	7
CC(=O)Oc1cccc(N2C(=O)C3CC=CCC3C2=O)c1 (stereo unspecified)	1	7	-40	-9	-18	i	-8	x
O=C(O)C1CCN(c2ccc(Cl)nn2)CC1	1	7	-5	4	4	i	x	2
CN1C(=O)C2(OCC(CO)([N+](=O)[O-])CO2)c2ccccc21 (stereo unspecified)	0	0	-9	2	-3	i	-17	-10
Cc1cc(C(=O)Nc2ccccc2C(=O)O)ccc1NC(=O)COc1cccc(C)c1C	5	-4	-10	7	-8	i	-13	12
Cc1ccc(-n2c(C)cc(/C=N\NC(=O)CC(=O)NC(C)C)c2C)cc1	-4	-5	-1	11	-3	i	x	0
COc1ccc(C(=O)Nn2c(C)nc3ccccc3c2=O)cc1	5	3	-2	0	-6	i	x	2
COc1ccc(-n2cc3ccc([N+](=O)[O-])cc3n2)cc1	5	-4	-190	-2	10	i	x	1
O=C(CSc1nc2ccccc2c(=O)n1CC1CCCO1)NCC1CCCO1 (stereo unspecified)	3	4	-80	5	6	i	-2	-13
COc1ccc(CNC(=O)c2cc3cc(OC)ccc3oc2=O)cc1	-4	-1	-102	-8	-8	i	3	38
CC(C)n1c(N2CCN(CC(=O)NCc3cccs3)CC2)nc2ccccc21	1	-7	-63	0	-2	i	-16	x
CCN(CC)c1ccc(NC(=O)CSc2nc3ccccc3c(=O)n2-c2cc(S(=O)(=O)N(C)C)ccc2C)cc1	-8	-8	x	-10	0	i	x	24
CCC(C)(C)NC(=O)CN(C(=O)CCC(=O)Nc1nccs1)c1ccc(C)cc1	-2	-5	12	13	-5	i	-16	-3
Clc1cccc2sc(N3CCCCC3)nc12	-2	-2	-147	-6	-1	i	-22	-1
CC(C)CC(=O)NC(=S)Nc1ccccn1	1	7	-21	7	19	i	-25	-20
COc1ccc(S(=O)(=O)N2CCOCC2)cc1NC(=O)c1c(-c2ccccc2)noc1C	7	-4	1	x	x	x	2	x
Cc1ccc(C(=O)C(=S)N2CCOCC2)cc1	-1	2	-16	2	-2	i	-10	-14
O=C(c1cccnc1)N1CCC(Oc2ccc(C(=O)N3CCCC(O)C3)cc2)CC1 (stereo unspecified)	4	0	-4	20	-3	i	-24	1
COc1ccc(NC(=O)/C=C/c2ccc(Br)o2)cn1	-5	-2	-15	-15	87	i	x	1	eIF4H FP inh retest=2;PABP polyA inh retest=-3
Cc1nnc(SCC(=O)N/N=C/c2ccc(-c3ccc(C)c(Cl)c3)o2)s1	1	4	0	-19	3	i	x	10
Cc1ccc(N2CC(C(=O)Nc3ccc(S(=O)(=O)Nc4nccc(C)n4)cc3)CC2=O)cc1 (stereo unspecified)	-3	5	7	11	-2	i	x	3
CN(C(=O)CSc1nncn1-c1ccccc1)C1CCS(=O)(=O)C1 (stereo unspecified)	5	6	1	x	x	i	-17	-13
COc1ccc(C2/C(=C(/O)c3ccccc3)C(=O)C(=O)N2c2ccccn2)cc1 (stereo unspecified)	0	1	2	1	-16	i	-20	-3
COc1ccc(S(=O)(=O)Nc2ccc(S(=O)(=O)N3CCCCC3)cc2)cc1C	3	0	-104	-6	0	i	-7	x
Cc1cc(F)ccc1NC(=O)CCc1c(C)nn(-c2ccc(N3CCCCC3)nn2)c1C	6	4	0	6	-22	i	-16	-6
CCOC(=O)c1c(C)[nH]c(C(=O)OCC(=O)N2CCN(S(=O)(=O)c3ccccc3)CC2)c1C	-3	-3	-103	-11	-10	i	-8	10
CCOC(=O)c1oc2ccccc2c1COC(=O)CNC(=O)c1ccc(C)cc1	7	1	-33	x	x	i	x	2
O=C(CCCCCCCC(=O)NNC(=O)Nc1ccccc1)NNC(=O)Nc1ccccc1	-5	3	x	8	-11	i	x	-10
Cn1c(=O)[nH]c(=O)c2c1nc(N1CCCCC1)n2CCSc1nc2ccccc2o1	-4	0	-12	-4	-1	i	-7	9
C[C@@H]1CN([C@H](C)CO)S(=O)(=O)c2ccc(C#CC3CCCC3)cc2O[C@H]1CN(C)C(=O)Cc1ccccc1	-13	-19	-5	x	x	x	42&4&2	x
O=C(NCc1ccccc1)Nc1cccn(Cc2cccc(F)c2)c1=O	-6	-11	-12	1	-1	i	x	-3

Sorted by SMILES length (largest number first): 3 of the compounds above
SMILES	MT1-MMP act inh	MT1-MMP act inh RFP	Env fusion inh	PABP polyA inh	eIF4H FP inh	Rce1 inhib	Yeast UUG start	CSC inhib	others
C[C@@H]1CN([C@H](C)CO)S(=O)(=O)c2ccc(C#CC3CCCC3)cc2O[C@H]1CN(C)C(=O)Cc1ccccc1	-13	-19	-5	x	x	x	42&4&2	x
Cc1cc(F)ccc1NC(=O)CCc1c(C)nn(-c2ccc(N3CCCCC3)nn2)c1C	6	4	0	6	-22	i	-16	-6
Cc1nnc(SCC(=O)N/N=C/c2ccc(-c3ccc(C)c(Cl)c3)o2)s1	1	4	0	-19	3	i	x	10

Next section:
SMILES	MT1-MMP act inh	MT1-MMP act inh RFP	Env fusion inh	PABP polyA inh	eIF4H FP inh	Rce1 inhib	Yeast UUG start	CSC inhib	others
Nc1nc(SCC(=O)N2N=C(c3ccc(Cl)cc3)CC2c2ccco2)n[nH]1 (stereo unspecified)	1	0	19	-6	-11	i	-12	-7
COc1cccc(CC(=O)OCC(=O)NC(C)c2ccc(F)cc2)c1 (stereo unspecified)	-3	2	12	x	x	x	8	-8
Cc1ccc(S(=O)(=O)Oc2ccc(/C=N/N=C3/NC(=O)C(CC(=O)O)S3)cc2)cc1[N+](=O)[O-] (stereo unspecified)	4	9	-3	0	-3	x	-14	-1
COc1ccc(CCNC(=O)C(=O)NCCCN2CCOCC2)cc1	-3	-1	-14	-2	-7	i	-14	x
CC(C)(C)C(=O)Nc1ccccc1C(=O)N1CCCC1	0	-1	1	-4	-3	i	9	4
Cc1ccc(C(=O)OCC(=O)c2ccc(Br)cc2)cc1S(=O)(=O)N1CCOCC1	-3	-4	-3	x	x	x	-16	x
C=CCc1c(C)c(C#N)c2nc3ccccc3n2c1NCCN(C)C	-4	1	x	-3	3	i	x	5
CCOC(=O)C1CN(C(C)(C)C)C(=O)C1=O (stereo unspecified)	-3	1	-13	2	-8	i	x	-14
CCCn1c(SCC(=O)NC2CCCCC2)nnc1-c1ccco1	1	3	-14	13	7	i	-9	-4
CCN(c1ccccc1)S(=O)(=O)c1ccc(Cl)c(NC(=O)CNC(C)c2ccccc2)c1 (stereo unspecified)	2	-8	x	x	x	x	-18	-10
Cn1cc(CN(Cc2ccccn2)C[C@@H]2CCC(=O)N2)c(-c2ccccc2F)n1	-1	4	6	4	6	i	x	6
Cc1cccc(C)c1NC(=O)/C(C#N)=C/c1cccs1	5	1	-24	-1	-10	i	-18	4
CNS(=O)(=O)c1ccc(NC(=O)c2ccccn2)cc1	1	4	-15	-9	-3	i	x	17
Nc1c(C(=O)NCc2ccccc2)nnn1Cc1ccccc1	x	x	-13	-13	-13	i	3	-4
O=C(COc1ccc(C(=O)c2ccccc2)cc1)NCC1CCCCC1	2	-4	0	-10	-9	i	x	15
FC(F)(F)Oc1ccc(NC(=S)Nc2ccc(OC(F)(F)F)cc2)cc1	1	0	21	5	8	i	x	74
Cc1ccc(NC(=O)CCNC(=O)Cn2cnc3ccccc3c2=O)cc1F	3	0	-2	3	-3	i	-4	7
CC(=O)NC(NC(=S)Nc1ccc(N=Nc2ccccc2)cc1)C(Cl)(Cl)Cl (stereo unspecified)	7	-8	-14	1	-3	i	-22	63
NS(=O)(=O)c1cccc(NC(=O)CSc2ccccn2)c1	1	0	x	76*	-3	i	-7	1	eIF4H FP inh retest=31;PABP polyA inh retest=85*
COc1ccc(N(C(C)C(=O)N/N=C/c2ccc(OC)c(OC)c2)S(C)(=O)=O)cc1 (stereo unspecified)	-2	5	6	-2	-2	i	x	-4
Cc1cc(Cl)c(S(=O)(=O)N2CCN(c3ccccn3)CC2)cc1OCC(N)=O	2	4	6	6	9	i	x	0
Cc1ccc(S(=O)(=O)NCCSCc2ccco2)cc1	-3	-3	7	0	-4	i	x	-5
Cc1ccc(C(C(=O)NC(C)(C)C)N(CC2CCCO2)C(=O)Cn2nnc(-c3ccc(C)o3)n2)cc1 (stereo unspecified)	-2	-1	x	3	-1	i	x	-18
CCOc1ccc(Nc2ccc([N+](=O)[O-])c3nonc23)cc1	-39	-8	-44	1	-12	i	-7	9
Cc1ccc(S(=O)(=O)N2CCN(C(=O)Cn3c(=O)oc4ccccc43)CC2)c(C)c1	-1	0	-5	x	x	x	10	x
CN1C(C(=O)Nc2ccc(OC(F)(F)F)cc2)=CC(c2ccc3c(c2)OCO3)=NS1(=O)=O	1	6	12	x	x	i	-1	-2
